NPYLR7 ag – mosquito NPYLR7 agonism. HEK293T NPYLR7/Galpha15, GCaMP6s calcium fluorescence. activation, % at 10 µM. 270,000 tested, 0.15% active; in the data active means activation above about 40%;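 further: 0% = vehicle and 100% = reference agonist at the receptor; some compounds past the cut are filed as inactive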
NPYLR7 ag max-min – also measured in NPYLR7 ag; calls as there; activation, %; measured here: Max-Min RFU normalised activation; some inactives read as strong as hits;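 span of the calcium signal over five minutes; 0% = vehicle and 100% = native peptide agonist; compound fluorescence can raise it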
Starred values were filed as active, the others as inactive; & = joins results of further samples. Some of the compounds tested; rates above refer to the full screens.

molecule | NPYLR7 ag | NPYLR7 ag max-min
O=C(NCc1ccccn1)Nc1cccc(Cn2nc3ccccn3c2=O)c1 | 3 | 0
CC1=CC[C@@H]2CN(C(=O)CCNC(=O)c3ccccc3F)C[C@@H]2C1 | -4 | -4
NC(=O)NC(CC(=O)N(Cc1ccccc1)C1CC1)c1cccc(Br)c1 (stereo not given) | 1 | -1
CN1CCCn2nc(C(=O)N3CCCC(C(=O)c4ccccn4)C3)cc2C1 (stereo not given) | 13 | 5
COc1ccc(NC(=O)CCC2CCN(C(=O)C3CC=CCC3)CC2)c(OC)c1 (stereo not given) | -1 | -6
CCCCCCc1cc2cc(-c3nnc(-c4ccccc4)o3)c(=O)oc2cc1OC(C)=O | 10 | 14
N#Cc1nncn1CCOc1ccc(Br)cc1 | 3 | 2
Cc1cc(N/C=C(/Br)C(=O)C(F)(F)F)no1 | 2 | -3
COC(=O)c1ccc(CSc2nc3c(c(=O)n2-c2ccc(OC)c(OC)c2)SCC3)o1 | -8 | -12
Cc1ncccc1C(=O)NC1CCCN(C2CCN(C)CC2)C1 (stereo not given) | 3 | 0
O=c1[nH]c(CNCc2ccco2)nc2scc(-c3cccc(Cl)c3)c12 | 17 | 27
Cc1cc(C)n(CCNC(=O)CC(=O)Nc2ccccc2C)c(=O)n1 | -4 | -4
Cc1nn(-c2ccccc2)c(C)c1C(=O)N1CCN(CC(=O)N2CCCCCC2)CC1 | 3 | -25
COc1ccc(-n2ncc3c2CCN(C(=O)Cc2ccc(C(F)(F)F)cc2)C3)cc1 | 1 | 34
c1cc(CNc2ccn3nccc3n2)ccn1 | 1 | 2
Cc1ccccc1-c1cnnc(NCCCn2cccn2)n1 | 2 | -1
Cc1ccc(C2CC(=O)c3cnc(N4CCOCC4)nc3C2)cc1 (stereo not given) | 14 | 6
Cc1cc(C(=O)Nc2nn(C)c3c2CC(C)C(=O)N3)c(C)o1 (stereo not given) | -14 | -20
CC(C)CNC(=O)NC(=O)CN1CCN(C(=O)C2CC2)CC1 | 7 | 6
CC1CCCCN1c1cc(C(F)(F)F)nc(SCc2ccc(C(=O)NCc3cccnc3)o2)n1 (stereo not given) | 2 | -6
CCCCN1CCN(c2nc3c(c(=O)[nH]c(=O)n3C)n2CCCc2ccccc2)CC1 | 2 | 0
CNc1ccc(-c2ccc(C(=O)N3CCOCC3)cc2)cn1 | 0 | 1
CC(C)c1ccc(-n2c(CCC(=O)NCCC#N)cc3c2-c2ccccc2OC3)cc1 | 1 | -1
CC1CCCCN1C1CN(Cc2ccccc2OCCO)C1 (stereo not given) | 6 | 3
COCCNCc1nc2sc3c(c2c(=O)[nH]1)CCCC3 | 0 | 8
CC1=CC(C)(C)N=C(Nc2nc(C)c3cc(C)cc(C)c3n2)N1 | 2 | 1
Cc1sc2ncc(C(=O)N3CCC4(CCCN(C)C4=O)C3)c(=O)n2c1C (stereo not given) | 11&4 | 7&4
Cc1ccc2c(c1)CCCN2CC(=O)N(C)CC(=O)NC1CC1 | 5 | 6
Fc1ccc(-c2nnn(CCCc3nc(C4CC4)n[nH]3)n2)cc1 | 1 | 3
Cc1cc2c(cc3c(=O)n(CC(=O)NC(C)C)ncn32)s1 | 9 | 14
COc1ccc(-c2nc(N(CCC(=O)NCc3cccc(C(F)(F)F)c3)Cc3ccco3)c3ccccc3n2)cc1 | -19 | -2
Cc1ccc2ccccc2c1CN(N=Nc1nonc1C)c1nonc1C | -1 | -2
C=CCN(CC#Cc1ccccc1)C(=O)c1cnccc1C | -5 | -6
COc1ccc2c(C)cc(SCC(=O)N3CCCCC3C)nc2c1 (stereo not given) | 3 | 0
CCOC(=O)C(c1cc(OC)ccc1OC)C1C=CC(NC(=O)c2cccc(SC(F)F)c2)C1 (stereo not given) | 0 | -7
CC(N=Cc1ccc([N+](=O)[O-])cc1)C1COc2ccccc2O1 (stereo not given) | 1 | 4
Cc1ccc(CN2CCN(Cc3cccn3-c3cccnc3)CC2CCO)o1 (stereo not given) | 11 | 8
CSCc1cccc(NC(=O)C2CCN(C(=O)N(C)C)CC2)c1 | 6 | 2
CCc1nc(CN(C)C(=O)C(C)(C)n2cccc2)no1 | -6 | -9
CCOC(=O)c1c(-n2cnnn2)sc(C)c1C | 22 | 9
Cc1nnsc1CN(C)C(=O)c1sc2ccccc2c1C | 9 | -4
O=C(O)C1CN(c2ccc3cccc(Cl)c3n2)CCN1 (stereo not given) | -2 | -2
CCC1CN(CCNC(=O)Cc2cccc(F)c2)Cc2cc(OC)ccc2O1 (stereo not given) | 35 | 21
CCCN1CC(NC(=O)c2nc3ccccc3c(=O)[nH]2)CC1=O (stereo not given) | 1 | -5
N#CC1C(=N)N(c2ccccc2)C(c2ccco2)C1(C#N)C#N (stereo not given) | -5 | -9
CN(Cc1cccc(Cl)c1)C(=O)Cn1c(=O)[nH]c(=O)c2ccccc21 | 4 | 2
COc1ccc(-c2nc3c(C)cccn3c2NC(C)(C)CC(C)(C)C)cc1 | -11 | -3
Cc1ccc(N2C(=O)CC3CS(=O)(=O)CC32)c(C)c1 (stereo not given) | -1 | 7
COc1ccccc1NC(=S)N1CCC(C(=O)NC(c2ccc(F)cc2)c2ccc3ccccc3n2)CC1 (stereo not given) | 6 | -4
Cn1ncc(Oc2ccc3c(c2)OCO3)c(Nc2ccc(C(=O)NCc3ccncc3)cc2)c1=O | 17 | 23
COCCOCN1C(=O)CC2(C1=O)C(=O)N(CCCn1c(=O)c3c(ncn3C)n(C)c1=O)c1ccccc12 (stereo not given) | -22 | -23
Fc1ccc(Nc2ncc3c(n2)CCN(Cc2cccc(Oc4ccccc4)c2)C3)c(F)c1 | -3 | -7
C#CCNC(=O)c1cc(-c2c(C)cc(C)cc2C)n(C)n1 | 2 | 0
CC(C)c1nccn1CCCNC(=O)c1ccc(N2CCC(O)CC2)nc1 | 14 | 7
O=C1CC(NCCc2ccc(Cl)cc2)C(=O)N1c1ccc(-c2nc3ccccc3o2)cc1 (stereo not given) | 18 | 5
COC(=O)C1CC2CCCCC2N1C(=O)c1cc(C)nc2cc(F)ccc12 (stereo not given) | 10 | 8
CCCCCCCCCCCCCCCCCC(=O)OC(CC(=O)O)C[N+](C)(C)C (stereo not given) | 2 | 0
CC(CO)NC(=O)c1cc2ccccc2oc1=O (stereo not given) | 3 | 0
C=CCNc1ncnc2sc3c(c12)CCCC3 | -4 | -6
COCCCNC(=O)CC(c1cccc(C(F)(F)F)c1)c1cn(C)c2ccccc12 (stereo not given) | -1 | 7

Gathered by group: the compounds so far with a furan ring, fused or not
molecule | NPYLR7 ag | NPYLR7 ag max-min
COC(=O)c1ccc(CSc2nc3c(c(=O)n2-c2ccc(OC)c(OC)c2)SCC3)o1 | -8 | -12
O=c1[nH]c(CNCc2ccco2)nc2scc(-c3cccc(Cl)c3)c12 | 17 | 27
Cc1cc(C(=O)Nc2nn(C)c3c2CC(C)C(=O)N3)c(C)o1 (stereo not given) | -14 | -20
CC1CCCCN1c1cc(C(F)(F)F)nc(SCc2ccc(C(=O)NCc3cccnc3)o2)n1 (stereo not given) | 2 | -6
COc1ccc(-c2nc(N(CCC(=O)NCc3cccc(C(F)(F)F)c3)Cc3ccco3)c3ccccc3n2)cc1 | -19 | -2
Cc1ccc(CN2CCN(Cc3cccn3-c3cccnc3)CC2CCO)o1 (stereo not given) | 11 | 8
N#CC1C(=N)N(c2ccccc2)C(c2ccco2)C1(C#N)C#N (stereo not given) | -5 | -9

Carrying on:
molecule | NPYLR7 ag | NPYLR7 ag max-min
CC(=O)N(c1ccc(Cl)cc1)C1C=CS(=O)(=O)C1 (stereo not given) | -3 | -7
CC(=O)Nc1ccccc1C(=O)N1CCN(Cc2ccccc2)CC1 | 14 | 13
CC(=O)Nc1ccc(Cl)c(C(=O)NC(c2ccncc2)c2ccccc2C)c1 (stereo not given) | 6 | 1
N#CCSc1nnc(-c2c[nH]c3ccccc23)o1 | 1 | 5
COc1ccccc1CN1CCn2nc(C(=O)NCc3ccc(-c4ccccc4)cc3)cc2C1=O | 17 | 5
Cc1cnc(NCCN2CCCCC2CO)nc1N(C)C (stereo not given) | 7 | 3
CC(NC(=O)CCNc1ccccc1-c1nn[nH]n1)c1ccccc1 (stereo not given) | 18 | 11
COc1ccc(Nc2nc(-c3cc4cc(OC)ccc4oc3=O)cs2)cc1 | -3 | -12
CCCNC(=O)c1cc(NC(=O)NCc2ccccc2)ccc1N1CCCC1 | 1 | 14
Cc1ccc(-c2nc(C(=O)Nn3cnc4scc(-c5cccs5)c4c3=O)cs2)cc1 | 4 | 2
COc1ccc(N2CCN(C(=O)CCc3ccccc3)C(C)C2=O)cc1OC (stereo not given) | -7 | -2
CCN(CC(=O)Nc1ccccc1C(F)(F)F)C(=O)CCN1C(=O)COc2ccccc21 | -7 | -8

CCOc1nn(CC)cc1C(=O)Nc1ccc(S(N)(=O)=O)cc1
  NPYLR7 ag: -11
  NPYLR7 ag max-min: -16
CCOc1ccccc1C(=O)Nc1c(C)nc2scc(C)n2c1=O
  NPYLR7 ag: 9
  NPYLR7 ag max-min: -2
O=C(c1cncc(-c2ccc(F)cc2Cl)n1)N1CCCCC1
  NPYLR7 ag: -7
  NPYLR7 ag max-min: -9
COc1ccccc1-c1cnn2c(C)c(C(=O)NCc3cccs3)cnc12
  NPYLR7 ag: -4
  NPYLR7 ag max-min: 2
CCC(=O)NCc1cccc(-c2ncc(-c3cccc(OC)c3)[nH]2)c1
  NPYLR7 ag: -1
  NPYLR7 ag max-min: -8
CC(C)(C)c1nc(SCC(=O)N2CCN(S(C)(=O)=O)CC2)n[nH]1
  NPYLR7 ag: -3
  NPYLR7 ag max-min: 1
COc1ccc(-c2nc(NC(=O)CN3CCCC3C)n[nH]2)c(OC)c1 (stereo not given)
  NPYLR7 ag: -6
  NPYLR7 ag max-min: -6
COc1ccc(NC(=O)N2CCN(c3nc(Cc4ccc(C)cc4)ns3)CC2C)cc1 (stereo not given)
  NPYLR7 ag: -2
  NPYLR7 ag max-min: -10
Cc1ccsc1CN(Cc1ccc2c(c1)OCO2)C(=O)CN(C(=O)Cc1ccccc1)C1CC1
  NPYLR7 ag: 1
  NPYLR7 ag max-min: 3
COc1ccc(NC(=O)CSc2ccc(-c3sc(-c4cccs4)nc3C)nn2)cc1OC
  NPYLR7 ag: 8
  NPYLR7 ag max-min: -3
CCCC(Nc1nc(CCN)nc2sc(C)c(C)c12)c1nccn1C (stereo not given)
  NPYLR7 ag: -3
  NPYLR7 ag max-min: -7
Cc1ccc2cccc(OC(=O)C=Cc3ccc(F)cc3)c2n1
  NPYLR7 ag: -9
  NPYLR7 ag max-min: -11
CCc1nc2ccc(C(=O)N3CCN(C(C)=O)CC3)cn2c1N(C)Cc1ccc(OC)cc1
  NPYLR7 ag: -6
  NPYLR7 ag max-min: -10
O=C(NCCN1CCOCC1)c1coc(CN(Cc2ccccc2)Cc2ccc(C(F)(F)F)cc2)n1
  NPYLR7 ag: 15
  NPYLR7 ag max-min: 9
CCOc1ncccc1CN1CCCC(C(=O)Nc2cccc(OC)c2)C1 (stereo not given)
  NPYLR7 ag: -1
  NPYLR7 ag max-min: -6
Cc1cc(NC(=O)COC(=O)c2oc3ccccc3c2C)no1
  NPYLR7 ag: 16
  NPYLR7 ag max-min: 7
CC(=O)c1cccc(N2C(=O)/C(=C/c3ccc([N+](=O)[O-])cc3)C=C2c2ccccc2)c1
  NPYLR7 ag: 0
  NPYLR7 ag max-min: 10
CN(Cc1cc(-c2ccncc2)no1)Cc1cnc(N(C)C)s1
  NPYLR7 ag: 7
  NPYLR7 ag max-min: -4
Cc1cc(C)n(CC2(CNC(=O)c3cc(CC(C)C)nn3C)CC2)n1
  NPYLR7 ag: 1
  NPYLR7 ag max-min: 27
CCc1ccc(NC(=O)COc2coc(CN3CCc4ccccc4C3)cc2=O)cc1
  NPYLR7 ag: -2
  NPYLR7 ag max-min: -4
CC(Sc1nccn1C)c1nc(C(C)(C)C)no1 (stereo not given)
  NPYLR7 ag: -1
  NPYLR7 ag max-min: -2
O=C(c1cccc(O)c1)N1CCN(Cc2nnc(C3CCC3)o2)CC1
  NPYLR7 ag: 0
  NPYLR7 ag max-min: -2
CC1CCCCC1OCCNC(=O)c1c(Br)c2ccccc2n1C (stereo not given)
  NPYLR7 ag: 11
  NPYLR7 ag max-min: 3
O=C(c1ccc(F)cc1C(F)(F)F)N1CCC(Cc2ccc(-n3cccc3)cc2)CC1
  NPYLR7 ag: 0
  NPYLR7 ag max-min: 5
CN(C)S(=O)(=O)c1cccc(C(=O)NNC(=O)CC2C=CCC2)c1 (stereo not given)
  NPYLR7 ag: 9
  NPYLR7 ag max-min: 13

Of the compounds above, these have a tert-butyl group:
COc1ccc(-c2nc3c(C)cccn3c2NC(C)(C)CC(C)(C)C)cc1
  NPYLR7 ag: -11
  NPYLR7 ag max-min: -3
CC(C)(C)c1nc(SCC(=O)N2CCN(S(C)(=O)=O)CC2)n[nH]1
  NPYLR7 ag: -3
  NPYLR7 ag max-min: 1
CC(Sc1nccn1C)c1nc(C(C)(C)C)no1 (stereo not given)
  NPYLR7 ag: -1
  NPYLR7 ag max-min: -2

Remaining list, next part:
Cc1cc(N(C)C2CCCCC2)nc(SCc2ccc(C(=O)N3CCCC3)o2)n1
  NPYLR7 ag: -7
  NPYLR7 ag max-min: -6
COc1cccc(NC(=O)CCC2CCN(C3C4CC5CC(C4)CC3C5)CC2)c1 (stereo not given)
  NPYLR7 ag: 1
  NPYLR7 ag max-min: -2
O=C1C2C3C=CC(C3)C2C(=O)N1Nc1ccccc1 (stereo not given)
  NPYLR7 ag: -6
  NPYLR7 ag max-min: -14
COc1ccc(-c2ccc(=O)n(CCNC(=O)Nc3ccc(C)c(F)c3)n2)cc1OC
  NPYLR7 ag: 4
  NPYLR7 ag max-min: 3
CC(C)c1nnsc1CN1CCC(N2CCCC2=O)CC1
  NPYLR7 ag: 3
  NPYLR7 ag max-min: 0
CCOc1ccc(NC(=O)N(C)C2CCC3(CC2)OCC(C)(C)CO3)cc1
  NPYLR7 ag: -9
  NPYLR7 ag max-min: -12
COc1cccc(CNc2nc(C(F)(F)F)nc3ccccc23)c1
  NPYLR7 ag: -3
  NPYLR7 ag max-min: -4
CCC(C)N(CC(=O)N(Cc1ccccc1)Cc1sccc1C)C(=O)Nc1ccccc1F (stereo not given)
  NPYLR7 ag: 15
  NPYLR7 ag max-min: 21
CCN1C(=O)C(=Cc2cccc(C#N)c2)SC1=S
  NPYLR7 ag: 1
  NPYLR7 ag max-min: -4
